# NS1 inh – inhibitors of influenza NS1 protein function; S. cerevisiae slowed by influenza A NS1, growth recovery by OD600; Potency, µM (titrated, usually from 46.1 µM), inactives show at the highest dose activity, positive = more growth; 270,000 compounds, 0.4% hits; active means well fitted rising curve with a large enough effect; inconclusive means small, poorly fitted or top-dose-only effect; inactive means no such curve, though single readings can be large or run the other way; further: nearly all actives have a fitted effect of over 50% in size
#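 Compounds were scored for reversing the slow growth caused by influenza A NS1 in S. cerevisiae, measured by optical density at 600 nm. Assay medium contained 2% galactose at pH 6.0; NS1-free yeast of the same strain were the positive control.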
# Cruzain inh noDet – blocks cruzain activity in detergent-free assay | P25779 | 200,000 compounds, 2.3% hits | Potency, µM, for the others: max response, negative = inhibition, actives largely listed as inhibitors | purified cruzain, Z-FR-AMC fluorescence, no detergent | AID 1476;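 further: plate controls were enzyme without inhibitor for no effect and buffer without enzyme for full effect; nearly all actives have a fitted effect of over 40% in size; top concentration of the series not given in the record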
# Target sequence (P25779 123-467 limits assumed): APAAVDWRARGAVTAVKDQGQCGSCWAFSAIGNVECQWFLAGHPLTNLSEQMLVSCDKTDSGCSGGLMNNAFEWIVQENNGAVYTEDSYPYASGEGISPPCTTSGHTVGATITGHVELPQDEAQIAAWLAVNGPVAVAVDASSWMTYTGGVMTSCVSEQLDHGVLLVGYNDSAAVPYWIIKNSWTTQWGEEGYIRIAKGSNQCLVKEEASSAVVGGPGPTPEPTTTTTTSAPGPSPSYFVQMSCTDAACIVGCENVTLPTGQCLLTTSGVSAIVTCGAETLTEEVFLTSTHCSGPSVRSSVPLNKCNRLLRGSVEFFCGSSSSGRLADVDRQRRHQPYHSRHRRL
#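 Purified cruzain at 1.5 nM, pre-incubated 15 min with compound at room temperature in 100 mM sodium acetate pH 5.5, 5 mM DTT, 0.00005% Triton X-100. Reaction started with 2 uM Z-FR-AMC; AMC fluorescence increase over 60 s gives rate.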
# StopGo reporter – FMDV 2A StopGo reporter, luciferase signal | 410,000 compounds, 1.2% hits | human cells with a luciferase reporter of 2A StopGo recoding; control for the full effect not named in the record | Potency, µM (highest dose often 57.9 µM), for the others: at the top dose signal change, negative = less light | AID 1159524; active = well fitted falling curve with a large enough effect; inconclusive = small, poorly fitted or top-dose-only effect; inactive = no such curve, though single readings can be large or run the other way; tested in HEK293T cells; further: on the % scale 0 is the no-effect control and ±100 the full control effect; nearly all actives have a fitted effect of over 45% in size; luciferase light after 4 h
# LASV entry inh – blocks Lassa virus binding to or entry into cells. Lassa virus pseudotype entry inhibition, cell reporter; control for the full effect not named in the record. AID 540256. Potency, µM (doses to about 37.9 µM), without a hit: at the top dose activity change, negative = inhibition, usual class: inhibitors. 300,000 compounds, 1.2% hits; active means well fitted inhibition curve with a large enough effect; inconclusive means small, poorly fitted or top-dose-only effect, or effect the other way; inactive means flat fitted curve, though single readings scatter; tested in HEK293 cells; further: on the % scale 0 is the no-effect control and ±100 the full control effect; nearly all actives have a fitted effect of over 50% in size; luciferase read-out
# Marburg entry inh – blocks Marburg virus binding to or entry into cells. Marburg virus pseudotyped entry inhibition, cell reporter; control for the full effect not named in the record; about a third of the inactives were read at about 46 µM. Potency, µM (series often up to 37.8 µM), without a hit: top-dose activity change, negative = inhibition, usual class: inhibitors. 300,000 compounds, 1.8% hits. AID 540276; active = well fitted inhibition curve with a large enough effect; inconclusive = small, poorly fitted or top-dose-only effect, or effect the other way; inactive = flat fitted curve, though single readings scatter; tested in HEK293 cells; about a fifth of its hits are not listed in these tables; further: on the % scale 0 is the no-effect control and ±100 the full control effect; luciferase read-out
# Cruzain inh Det – blocks cruzain activity in presence of Triton detergent. 200,000 compounds, 0.43% hits. AID 1478. P25779. purified cruzain, Z-FR-AMC fluorescence, 0.01% Triton. Potency, µM, for inactives: max response, negative = inhibition, hits mostly inhibitors;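 further: plate controls were neutral wells for no effect and buffer without enzyme for full effect; nearly all actives have a fitted effect of over 40% in size; top concentration of the series not given in the record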
#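 Sodium acetate buffer (100 mM, pH 5.5) containing 5 mM DTT and 0.01% Triton X-100 hosted 1.5 nM cruzain and test compound for 15 min at room temperature. Cleavage of 2 uM Z-FR-AMC was then tracked by fluorescence.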
# RE007 growth inh – less growth of the S. pombe RE007 Vpr strain; S. pombe RE007 Vpr strain, BacTiter-Glo ATP luminescence, 24 h; control for the full effect not named in the record; Potency, µM (highest dose often 92.2 µM), inactives show at the highest dose activity change, negative = less growth; 360,000 compounds, 0.21% hits; AID 651644; active = well fitted falling curve with a large enough effect; inconclusive = small, poorly fitted or top-dose-only effect; inactive = no such curve, though single readings can be large or run the other way;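 further: on the % scale 0 is the no-effect control and ±100 the full control effect; nearly all actives have a fitted effect of over 50% in size; the assay follows cell death caused by Vpr and the record does not say whether a fall means rescue or toxicity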
#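 Fission yeast RE007 carrying one integrated HIV-1 vpr copy, seeded at OD 0.01 in PMG+AL medium with 23 nL pinned compound. Grown 24 h at 30 degrees; viability read by BacTiter-Glo luminescence after 5 min.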
# SARS PLpro yeast – inhibitors of SARS-CoV papain-like protease in yeast; S. cerevisiae expressing SARS-CoV PLpro, growth rescue; control for the full effect not named in the record; Potency, µM (highest dose often 32.9 µM), for inactives: at the highest dose activity, positive = growth rescue; 330,000 compounds, 0.19% hits; active means well fitted rising curve with a large enough effect; inconclusive means small, poorly fitted or top-dose-only effect; inactive means no such curve, though single readings can be large or run the other way; further: 0% is about no effect; nearly all actives have a fitted effect of over 55% in size; growth read by luminescence after 48 h
# Active calls of the source: *; u = inconclusive; x = not tested or not shown; [ ] = dose if it differs, or a comment. Unless noted, the call rests on the fitted dose curve; in most records, active means well fitted curve in the direction sought with a large enough effect; inconclusive means small, poorly fitted or top-dose-only effect, or another doubt; inactive means no such curve, though single readings can be large; an effect the other way counts as inactive or inconclusive. Potency means the concentration at half of the fitted maximal effect.
SMILES,NS1 inh,Cruzain inh noDet,StopGo reporter,LASV entry inh,Marburg entry inh,Cruzain inh Det,RE007 growth inh,SARS PLpro yeast
CCc1ccc(C(=O)c2cn(CC(=O)Nc3cc(OC)cc(OC)c3)c3ccc(CC)cc3c2=O)cc1,x,-7.5%,-16.3%,4.4%[46.1 µM],-16.0%[46.1 µM],1.5%,x,x
Cn1c(=O)c(S(=O)(=O)C(C)(C)C)c(O)c2ccccc21,2.3%,-1.1%,-12.4%,3.5%,u,0.5%,-22.4%,-5.1%
CN(CC(=O)NC1CC1)S(=O)(=O)c1ccc(Br)cc1,16.3%,x,-17.4%,-4.6%,1.7%,x,3.1%,x
COc1ccc(C(=O)N2CCN(C(=O)COc3ccc(Br)cc3)CC2)cc1OC,x,-12.2%,-9.0%,-27.9%[46.1 µM],-2.7%[46.1 µM],-1.5%,x,x
CCOc1ccc(NC(=O)COc2nsnc2N2CCCCC2)cc1,-2.8%,-8.8%,u,5.0%,-21.0%,-0.5%,-13.0%,-0.1%
NC(=S)NNC(=O)COc1ccccc1O,4.2%,x,-15.9%,x,x,x,-6.9%,0.3%
COc1ccc2c(c1OC)C(=O)N1c3cccc(Cl)c3C(=O)OC21 (configuration not stated),-0.3%,-3.3%,x,-9.6%,7.2%,5.7%,-16.4%,-6.8%
CCOC(=O)N1CCN(C(=O)c2ccc(CNS(=O)(=O)c3ccc(OC)cc3)cc2)CC1,-7.2%,8.3%,-7.0%,-22.2%,2.7%,1.9%,1.3%,1.3%
O=C(CC1CCCCC1)NCCCN1CCOCC1,-3.1%,-8.9%,0.3%,0.1%,-1.6%,1.0%,-0.5%,2.7%
CCOc1ccccc1/C=N/NC(=O)c1cc(C(C)C)[nH]n1,-4.8%,x,25.9%,26.4%,12.2%[46.1 µM],x,-0.3%,-1.9%
O=C(NCCc1ccccc1)C1CCCN(C(=O)Nc2ccc(F)cc2)C1 (configuration not stated),5.5%,x,-11.9%,u,u,x,-15.1%,-3.5%
O=C(NCc1ccc(Cl)cc1)c1noc2c1CCCC2,-42.8%,-6.3%,33.5%[activator],-8.8%,22.9%,-0.4%,u,-3.4%
Cc1ccc(N2C(=O)CS(=O)(=O)C23C(=O)N(C)c2ccccc23)cc1F (configuration not stated),x,-24.8%,-17.5%,18.4%[46.1 µM],x,-1.8%,x,x
CC1(C)CC(NC(=O)C(Cl)(Cl)Cl)CC(C)(C)N1,24.1%,10.0%,-4.1%,9.8%,-25.7%,0.0%,13.6%,-2.8%
N/C(=N\O)c1ccccc1N1CCCCC1,0.5%,x,-6.5%,-1.4%[46.1 µM],29.9%[46.1 µM],x,-6.2%,-0.4%
CCOc1ccc(C(=O)NCC(=O)N2CCC3(CC2)NCCc2[nH]cnc23)cc1,-8.3%,x,-6.6%,-14.3%[46.1 µM],10.1%[46.1 µM],x,-3.4%,0.3%
CCCCNS(=O)(=O)c1ccc2nc(-c3cccnc3)cc(C(=O)NCCCOC(C)C)c2c1,x,8.7%,97.6%[activator],2.3%[46.1 µM],x,-1.0%,x,x
N#Cc1nc(-c2cccc3ccccc23)oc1NCCN1CCOCC1,-50.1%,-4.2%,0.0%,26.5%,5.2%,-29.9%,-5.2%,10.7%
CC(C)CNC(=O)c1ccc(C2SCC(=O)N2Cc2ccccc2)cc1 (configuration not stated),1.8%,x,-20.5%,u,13.2%[46.1 µM],x,0.0%,0.2%
CC1=C/C(=C(\c2cc(C)c(O)c(Br)c2)c2ccccc2S(=O)(=O)O)C=C(Br)C1=O,-7.5%,x,u,x,x,x,u,-11.6%

# A different layout for 5 compounds above:
smiles | NS1 inh | Cruzain inh noDet | StopGo reporter | LASV entry inh | Marburg entry inh | Cruzain inh Det | RE007 growth inh | SARS PLpro yeast
CC1(C)CC(NC(=O)C(Cl)(Cl)Cl)CC(C)(C)N1 | 24.1% | 10.0% | -4.1% | 9.8% | -25.7% | 0.0% | 13.6% | -2.8%
CC1=C/C(=C(\c2cc(C)c(O)c(Br)c2)c2ccccc2S(=O)(=O)O)C=C(Br)C1=O | -7.5% | x | u | x | x | x | u | -11.6%
N/C(=N\O)c1ccccc1N1CCCCC1 | 0.5% | x | -6.5% | -1.4%[46.1 µM] | 29.9%[46.1 µM] | x | -6.2% | -0.4%
O=C(NCc1ccc(Cl)cc1)c1noc2c1CCCC2 | -42.8% | -6.3% | 33.5%[activator] | -8.8% | 22.9% | -0.4% | u | -3.4%
N#Cc1nc(-c2cccc3ccccc23)oc1NCCN1CCOCC1 | -50.1% | -4.2% | 0.0% | 26.5% | 5.2% | -29.9% | -5.2% | 10.7%

# Carrying on.
SMILES,NS1 inh,Cruzain inh noDet,StopGo reporter,LASV entry inh,Marburg entry inh,Cruzain inh Det,RE007 growth inh,SARS PLpro yeast
CN(C)C(=O)Oc1ccc(OC(=O)N(C)C)cc1,1.4%,8.6%,-8.7%,u,10.1%,-3.5%,3.6%,2.4%
O=S(=O)(Nc1ccc(Cl)cn1)c1ccc(Cl)cc1,-40.9%,x,36.3%[activator],x,x,x,15.2%,-0.1%
COc1ccccc1COc1ccc2c(C)c(CCC(=O)O)c(=O)oc2c1C,-4.3%,x,-4.1%,-25.9%,u,x,-5.2%,-1.2%
CC1N/C(=C\C(=O)c2ccccc2)N(O)C1(C)C (configuration not stated),3.8%,-6.2%,10.6%,u,u,3.0%,14.5%,-5.4%
CSc1nc(N)c(N=Nc2ccc([As](=O)(O)O)cc2)c(=O)[nH]1,2.6%,x,-3.8%,24.7%,-6.8%,x,10.5%,0.6%
O=C(C1=C[C@H](c2ccc(Br)cc2)C[C@H](OCCCCO)O1)N1CCN(Cc2ccccc2)CC1,-5.7%,x,0.0%,x,x,x,1.2%,0.2%
CCc1cccc(C)c1NC(=O)COC(=O)C(NS(=O)(=O)c1ccc(Cl)cc1)C(C)O (configuration not stated),-5.9%,-7.9%,2.4%,-8.4%,16.3%,-1.8%,7.4%,-10.7%
CN1CCN(C(=O)c2ccc3c(=O)n4c(nc3c2)CCCCC4)CC1,-4.5%,1.5%,-2.9%,-9.9%,18.3%[46.1 µM],0.3%,17.8%,1.5%
CCC(C)NC(=O)c1cn(-c2cccc(C)n2)cn1 (configuration not stated),6.2%,-8.6%,30.3%[activator],4.2%,u,2.1%,-4.5%,4.8%
COc1ccc(-n2nc(C(=O)NCC(=O)N3CCC(C)CC3)c3ccccc3c2=O)c(OC)c1,6.0%,x,54.2%[activator],-8.8%,-1.8%[46.1 µM],x,1.5%,1.5%
c1ccc(CC2CCN(c3nnnn3-c3ccccc3)CC2)cc1,-34.7%,-3.8%,u,u,-10.6%,-7.7%,17.7%,-9.3%
O=C(NCc1ccccc1Cl)c1ccc2c(c1)nnn2C1CCCC1,x,-13.3%,43.0%[activator],6.3%[46.1 µM],x,-2.9%,x,x
Cc1ccc(-c2cccc(CN3CCN(C4CCN(C(C)C)CC4)C(CCO)C3)c2)o1 (configuration not stated),-1.6%,x,-7.8%,x,x,x,-19.1%,0.9%
Cc1ccc(NC(=O)COS(=O)c2ccc(C)cc2)cc1 (configuration not stated),-3.0%,-1.4%,23.9%,2.1%,5.7%,-5.2%,8.8%,3.2%
CN(C)S(=O)(=O)c1cccc(-c2nn(-c3ccccc3)cc2/C=C2\SC(=S)N(CC(=O)O)C2=O)c1,13.8%,x,6.3%,x,x,x,7.3%,-0.8%
NC(=O)c1ccc(NC(=O)CSc2nnc(-c3ccccn3)n2N)cc1,x,x,-0.8%,13.7%,10.9%,x,-7.9%,1.0%
O=C(NC1CCCCC1)C1CCN(c2ncccn2)CC1,7.9%,x,-9.0%,-0.4%,29.4%[46.1 µM],x,1.8%,2.8%
Cc1ccc(C)c(NC(=O)C2COc3ccccc3O2)c1 (configuration not stated),-10.1%,x,43.2%[activator],x,x,x,-8.9%,-1.5%
O=C(NCCc1nnc2ccc(NCc3ccc(Cl)cc3)nn12)c1ccccc1,x,x,-11.9%,0.1%,-3.6%[46.1 µM],x,6.2%,-1.0%
CCOC(=O)c1ccc(NC(=O)c2c(N3CCCC3=O)c3cc(OC)ccc3n2C)cc1,x,u,-11.9%,9.8%[46.1 µM],x,-16.2%,x,x
COC(=O)c1c(-c2ccc(C)cc2)csc1NC(=O)C1CC=CCC1C(=O)O (configuration not stated),7.9%,19.1%,28.2%,u,u,-6.4%,x,5.4%
COc1cc(CNC2CCCC2)c(Br)cc1OCc1ccccc1,1.2%,x,-11.4%,u,u,x,-24.7%,-0.1%
COc1ccc(C2C(C(N)=O)=C(C)Nc3nc(-c4ccccc4)nn32)cc1OC (configuration not stated),1.8%,-10.2%,-4.2%,x,x,-3.8%,4.9%,3.6%
COc1ccc2[nH]c(C(=O)O)c(NC(=O)c3cc(OC)c(OC)c(OC)c3)c2c1,1.1%,x,-19.9%,x,x,x,15.3%,-0.6%
COc1cccc2cc(C(=O)N3CCc4ccccc43)c(=O)oc12,2.8%,4.0%,8.2%,-2.8%,2.8%[46.1 µM],3.6%,-4.3%,2.3%
COc1cc(OC)cc(C(=O)NNC(=O)CCNS(=O)(=O)c2ccc(C)c(C)c2)c1,x,x,-0.1%,1.1%,-8.7%,x,4.7%,-1.0%
Cn1c(/C=C/N(Cc2ccccc2)c2ccccc2)c([N+](=O)[O-])c(=O)n(C)c1=O,4.5%,x,2.4%,x,x,x,5.5%,0.5%
CCOC(=O)c1cc(S(=O)(=O)N(C)c2ccccc2)[nH]n1,x,1.0%,7.2%,24.5%[46.1 µM],x,-2.4%,x,x

# Of the compounds above, 2 have fluorine:
SMILES,NS1 inh,Cruzain inh noDet,StopGo reporter,LASV entry inh,Marburg entry inh,Cruzain inh Det,RE007 growth inh,SARS PLpro yeast
O=C(NCCc1ccccc1)C1CCCN(C(=O)Nc2ccc(F)cc2)C1 (configuration not stated),5.5%,x,-11.9%,u,u,x,-15.1%,-3.5%
Cc1ccc(N2C(=O)CS(=O)(=O)C23C(=O)N(C)c2ccccc23)cc1F (configuration not stated),x,-24.8%,-17.5%,18.4%[46.1 µM],x,-1.8%,x,x

# Source: PubChem (National Center for Advancing Translational Sciences (NCATS))
